SmPrx2 inh – Schistosoma mansoni Prx2 inhibition; 65,000 tested, 0.07% active; Potency, µM; S. mansoni Prx2 activity coupled to TGR/GSH (TGR is thioredoxin glutathione reductase), NADPH fluorescence loss, qHTS; some inactives read as strong as hits; AID 448; active means full or partial inhibition curve with a strong effect at the top dose; inconclusive means weaker partial or single-point curve; inactive means no accepted curve; further: series up to 57 µM; many of its hits are not listed in these tables
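Activity is read as the drop in NADPH fluorescence (365/450 nm), recorded every 30 sec for 8 min after H2O2 addition. Prx2 is coupled to TGR-driven NADPH oxidation through glutathione, in phosphate buffer pH 7.4.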
Anthrax LT inh – blocks cellular internalization of anthrax lethal toxin | Potency, µM (doses to about 40 µM), inactives show at the top dose activity change, negative = inhibition, usual class: inhibitors | Cells, anthrax lethal toxin internalization, FRET ratio (460/530) | 70,000 tested, 0.67% active; active = well fitted falling ratio curve with the 530 nm signal flat; inconclusive = other ratio curves, or a change in one channel alone; inactive = flat curves in the ratio and both channels; the % refers to the ratio; further: on the % scale 0 is the no-effect control and ±100 the full control effect; nearly all actives have a fitted effect of over 50% in size; tested in ME-180 cells; beta-lactamase reporter
* = called active by the depositor; ? = inconclusive; . = no result given; & = joins results of further samples; [ ] = another dose, or the depositor's remark. Potency means the concentration at half of the fitted maximal effect. A portion of the library (hit frequency here may not be typical).

SMILES	SmPrx2 inh	Anthrax LT inh
Cc1ccc(-c2cc(-c3cccc(F)c3)n[nH]2)c(O)c1	>57	-16%
CCS(=O)(=O)Nc1ccc(C(=O)OC)cc1	>57	3%
Cn1c(=O)c2c(nc(-n3ccnc3)n2C)n(C)c1=O	>57	-6%
O=C(CCCn1c(=O)[nH]c2cc(Cl)ccc2c1=O)NCC1CCCO1 (centres undefined)	>57	-13%
COc1ncc2nc(-c3cn(C)c4ccccc34)c(=O)n(CCC#N)c2n1	>57	?
Cc1cc(C)c2c(=O)[nH]c(SCC(=O)Nc3ccccc3)nc2n1	>57	-7%
COCCn1c(Cc2ccccc2)nnc1SCC(=O)NC(C)C	>57	-15%
O=S(=O)(c1cccc(S(=O)(=O)N2CCCC2)c1)c1cccc(S(=O)(=O)N2CCCC2)c1	.	?
C[N+]1(C)CCC(OC(=O)C(c2ccccc2)c2ccccc2)CC1	>57&>57	?
Cc1cc(N2CCN(c3ccccc3F)CC2)nc2cc(O)ccc12	>57	19%
CN1CCc2nc(CO)c(CO)cc2C1	.	-2%[8 µM]
Nc1nc(-c2ccc(Cl)c(Cl)c2)c(-c2ccncc2)s1	.	4%

Among those listed so far, 2 have fluorine:
SMILES	SmPrx2 inh	Anthrax LT inh
Cc1ccc(-c2cc(-c3cccc(F)c3)n[nH]2)c(O)c1	>57	-16%
Cc1cc(N2CCN(c3ccccc3F)CC2)nc2cc(O)ccc12	>57	19%

(further entries)
SMILES	SmPrx2 inh	Anthrax LT inh
CCOC(=O)c1cnn2c(N)c(C#N)nnc12	>57	1%
Cc1ccc(NC(=O)c2cc(S(=O)(=O)N3CCOCC3)ccc2F)c(C)c1	>57	?
CCOC(=O)c1[nH]c(=O)c2ccccc2c1O	>57	5%
Cn1ncc2c(NCCc3ccccc3)nc(Cl)nc21	>57	-1%[8 µM]
Cc1ccnc(NC(=O)C23CC4CC(CC(C4)C2)C3)c1	>57	5%
Cn1c(=O)c2c(nc(SCCCC#N)n2Cc2c(F)cccc2Cl)n(C)c1=O	>57	-10%
COc1ccc(C(=O)Nc2cc(OC)ccc2OC)cc1	>57	3%
CCOC(=O)c1ccccc1NC(=O)CSc1nc2c(c(=O)n(C)c(=O)n2C)n1C	>57	-17%
Cn1nnnc1SCC(=O)Nc1ccc(Oc2ccc(Cl)cc2)cc1	>57	-10%
CCOC(=O)c1cnc2c(-c3ccccc3)cnn2c1N	>57	-1%
CCCN1C2=NCCN2c2ccccc21	>57	-7%
CCCn1c(-c2ccc(OC)cc2)nc2ccccc21	>57	-10%
O=c1[nH]cnc2nc3n(c12)CCCCC3	>57	-5%
Cc1cccc(NC(=O)CSc2nnc(-c3ccc(S(=O)(=O)N4CCCC4)cc3)o2)c1	>57	-1%
CCN(CC)S(=O)(=O)c1cc(-c2nnc(-c3ccc(Br)cc3)o2)ccc1Cl	.	-8%
O=C(NCCN1CCOCC1)c1ccc2c(c1)N(Cc1ccccc1)C(=O)CS2	>57	3%
O=c1c2ccccc2nc(SCc2nnc(-c3ccccc3Br)o2)n1Cc1ccco1	>57	?
CCOC(=O)c1cnc2ccc(Br)cc2c1NCC(C)O (centres undefined)	>57	4%
O=C(CCn1cnc2ccccc2c1=O)Nc1ccc(S(=O)(=O)N2CCCC2)cc1	>57	-4%
CC(C)C(=O)Nc1cccc(C(=O)NCc2ccc3c(c2)OCO3)c1	>57	-2%
CCOc1ccc2nc(NC(=O)CN3CCC(n4nnc5cc(F)ccc54)CC3)sc2c1	>57	13µM*
OCCNc1nc2ccccc2n1-c1ccccc1	>57	-20%
CCNc1nc(Oc2ccc(C(=O)OC)cc2)nc(N(C)C)n1	>57	6%
CC(C(=O)NCC1CCCO1)N(C(=O)c1snc(C(N)=O)c1N)c1ccccc1 (centres undefined)	>57	-11%

Filtered by structure, those above with a Cl atom.
SMILES	SmPrx2 inh	Anthrax LT inh
O=C(CCCn1c(=O)[nH]c2cc(Cl)ccc2c1=O)NCC1CCCO1 (centres undefined)	>57	-13%
Nc1nc(-c2ccc(Cl)c(Cl)c2)c(-c2ccncc2)s1	.	4%
Cn1ncc2c(NCCc3ccccc3)nc(Cl)nc21	>57	-1%[8 µM]
Cn1c(=O)c2c(nc(SCCCC#N)n2Cc2c(F)cccc2Cl)n(C)c1=O	>57	-10%
Cn1nnnc1SCC(=O)Nc1ccc(Oc2ccc(Cl)cc2)cc1	>57	-10%
CCN(CC)S(=O)(=O)c1cc(-c2nnc(-c3ccc(Br)cc3)o2)ccc1Cl	.	-8%

Next part
SMILES	SmPrx2 inh	Anthrax LT inh
CCOC(=O)CSc1nnnn1-c1cccc2ccccc12	>57	-3%
O=C1CC(c2ccc(F)cc2)Cc2nc(N3CCOCC3)ncc21 (centres undefined)	>57	-2%
COc1ccc(C(c2nnnn2Cc2cccs2)N2CCN(c3ccccc3F)CC2)cc1OC (centres undefined)	>57	-8%
O=C(CCCOc1ccccc1)Nc1nccs1	>57	15%
CCc1c(O)nc(SCC(=O)Nc2ccc(OC)cc2)n(C2CCCCC2)c1=O	>57	-1%
CCc1nnc(NC(=O)c2ccc(S(=O)(=O)NCC(C)C)cc2)s1	>57	-1%
CC1=C2[C@H](/C=C(\C)C(=O)O)CC[C@@H](C)[C@H]2CC1	.	-7%
CN1CCCN(C(=O)Cc2c(Cl)cccc2Cl)c2nc3ccccc3nc21	>57	?
CC(C)N=C=NC(C)C	.	-10%
Cc1ccc(-n2c(SCc3cc(=O)n4ccsc4n3)nnc2-c2cccnc2)c(C)c1	>57	?
O=C(Nc1nnc(C2CCCC2)s1)C1CCN(S(=O)(=O)c2ccc(Cl)cc2)CC1	>57	6%
O=C(CN1CC=C(c2ccccc2)CC1)NC(=O)NCc1ccco1	>57	10%
Cn1cc(-c2nc3cnc(N4CCNCC4)nc3n(-c3ccccc3)c2=O)c2ccccc21	>57	?
CCOc1ccccc1C(=O)NCC(=O)OCC(=O)N1C(C)CCCC1C (centres undefined)	>57	7%
CC(C)NC(=O)CSc1nnc2sc3ccccc3n12	>57	-2%
CC12CCCCC1(O)[N+](=O)C1=C(CCCC1)N2[O-] (centres undefined)	>57	-27%
COCCNC(=O)c1cc(-c2ccccc2OC)on1	>57	-14%
Cc1ccc2oc(-c3ccccc3C(=O)O)cc(=O)c2c1	>57	-4%
CC(=O)OCCNC(=O)Cn1cnc2c1c(=O)n(C)c(=O)n2C	>57	1%
CC(C)(C)C1CCc2c(sc(N)c2C(N)=O)C1 (centres undefined)	>57	-15%
COc1ccc(NC(C)=O)cc1NC(=O)CSc1nnc(-c2ccncc2)n1C	>57	-8%
CCOc1cc(-c2noc(-c3ccncc3)n2)cc(Br)c1OC	>57	-11%
COc1ccc(C2C(C(=O)NCCN3CCOCC3)c3ccccc3C(=O)N2C2CCCCC2)cc1 (centres undefined)	>57	8%
Cc1ccc(-c2cc(C(=O)NCc3cccnc3)no2)cc1	>57	23%
Cc1nnc(SCc2ccc(Cl)cc2Cl)[nH]c1=O	>57	0%
CC1(C)[C@@H](O)CC[C@@]2(C)[C@H]1CC[C@]1(C)[C@H]2C(=O)C=C2[C@@H]3C[C@@](C)(C(=O)O)CC[C@]3(C)CC[C@@]21C	>57	?
Cn1nnnc1SCC(=O)N1CCc2ccccc2C1	>57	3%
Cc1ccc(C2(O)CC(C)N(C)CC2C)cc1 (centres undefined)	>57	-8%
COCCCNC(=O)CN(C1CCCCC1)S(=O)(=O)c1ccc(C)cc1	>57	6%
O=c1cc(CO)oc(C(Nc2ccccn2)c2ccc(C(F)(F)F)cc2)c1O (centres undefined)	>57	?
CCn1cc(Br)c(C(=O)Nc2ccc(OC)cc2)n1	>57	-2%
O=S(=O)(NC1CCCCC1NCc1ccco1)c1ccccc1 (centres undefined)	.	-16%
CC1(C)COCN1S(=O)(=O)c1ccc(C(=O)Nc2nnc(-c3ccc(Cl)s3)o2)cc1	>57	3%
CCOC(=O)OCC1C=C[C@H](c2cc(-c3ccccc3)ccc2O)C(c2ccc(C(C)=O)cc2)O1 (some centres undefined)	.	-16%[8 µM]
Cn1c(COc2ccccc2)nnc1SCCSc1nnc(COc2ccccc2)n1C	>57	10%
CN(C)c1ccc(NC(=O)Cn2c(=O)n(Cc3ccccc3)c(=O)c3ccccc32)cc1	>57	-1%

The closing four entries of the part above open the next one.
SMILES	SmPrx2 inh	Anthrax LT inh
CC1(C)COCN1S(=O)(=O)c1ccc(C(=O)Nc2nnc(-c3ccc(Cl)s3)o2)cc1	>57	3%
CCOC(=O)OCC1C=C[C@H](c2cc(-c3ccccc3)ccc2O)C(c2ccc(C(C)=O)cc2)O1 (some centres undefined)	.	-16%[8 µM]
Cn1c(COc2ccccc2)nnc1SCCSc1nnc(COc2ccccc2)n1C	>57	10%
CN(C)c1ccc(NC(=O)Cn2c(=O)n(Cc3ccccc3)c(=O)c3ccccc32)cc1	>57	-1%
O=C1CN(C(=O)c2ccco2)C(c2ccccc2)c2cc(Cl)ccc2N1 (centres undefined)	>57	-4%
CCOC(=O)COc1ccc2c3c(c(=O)oc2c1C)CCC3	>57	-3%
COc1ccc(-c2nc(NC(=O)C3CCN(c4nc5ccccc5o4)CC3)sc2C)cc1	>57	?
O=C(Nc1nccs1)c1ccc(Cl)c(S(=O)(=O)N2CCOCC2)c1	>57	5%
CC1(C)Cc2c(sc3nc(-c4cc5ccccc5o4)n(N)c(=O)c23)CO1	>57	-6%
CC(C)OC(=O)CSc1nnc2n1C(C)(C)Cc1ccccc1-2	>57	-25%
COCCn1c(-c2cc(OC)c(OC)c(OC)c2)nc2nc3ccccc3nc21	>57	-16%
COc1cccc(CN=CC2=C(O)CC(C)(C)CC2=O)c1OC	.	-2%
Cc1[nH]n2c(=O)cc(Cc3ccccc3)nc2c1C#N	>57	-21%
CC1(C)CN=C(Nc2nc3ccccc3s2)S1	>57	-4%
CCn1c(Cc2ccccc2)nnc1SCC(=O)Nc1ccc(N2CCOCC2)c(Cl)c1	?	3%
CCOC(=O)N1CCC(N2Cc3cccc(C(=O)NCc4ccccc4OC)c3C2=O)CC1	>57	14%
Cc1nc2nc(C)c(CCC(=O)NCCC3=CCCCC3)c(C)n2n1	>57	-10%
Cc1cc(=O)n(-c2ccc(O)cc2)[nH]1	>57	3%
COc1ccc(Cl)cc1-c1nc(-c2ccncc2)no1	>57	6%
O=C(c1cccc(F)c1)N1CCN(S(=O)(=O)c2ccc(C(F)(F)F)cc2)CC1	>57	3%
COC(=O)[C@@]1(Cc2ccc(F)cc2)[C@H]2c3cc(C(=O)N(C)C)n(Cc4cc(F)c(F)c(F)c4)c3C[C@H]2CN1C(=O)c1ccccc1	>57	-3%
CCOC(=O)N1CCN(C(=O)CCc2nc3sc4c(c3c(=O)[nH]2)CCCC4)CC1	>57	-6%
Nc1nc(Cc2ccccc2)nc(Cc2ccccc2)c1-c1ccccc1	>57	-14%[8 µM]
O=C(CN1C(=O)C2C3c4ccccc4C(c4ccccc43)C2C1=O)N1CCOCC1 (centres undefined)	>57	-8%
CS(=O)(=O)Nc1ccc(Nc2c3ccccc3nc3ccccc23)cc1	>57	?
CCc1nnc(NC(=O)CCC(=O)N2CCN(Cc3ccc(Cl)cc3)CC2)s1	>57	11%
CC1CCCC(NC(=O)COC(=O)Cc2cn3ccsc3n2)C1C (centres undefined)	>57	?
O=C(c1nn(Cc2ccccc2)c(=O)c2ccccc12)N1CCN(c2ccccn2)CC1	>57	-4%
Cc1cc(NC(=O)c2noc3c2CCCCC3)no1	>57	5%
CCOC(=O)C(NS(=O)(=O)c1ccc(Br)cc1)C(C)C (centres undefined)	>57	?
O=C(Nc1cccc(C(F)(F)F)c1)c1cccnc1N1CCN(CCO)CC1	>57	6%
Cc1ccc(S(=O)(=O)N2CCCC2C(=O)NCCc2nc3ccccc3[nH]2)cc1 (centres undefined)	>57	4%
N#CCSc1nc2ccc(N3CCCCC3)cc2c(=O)n1Cc1ccccc1	>57	-10%
CNc1cc(-c2ccccc2CN(C)C)ncn1	>57	0%
CN(C)C(=O)c1ccc(NC(=O)c2cncc(Br)c2)cc1	>57	0%
Cc1ccc(SCc2[nH]nc3c2C2(C(=O)N(C)c4ccccc42)C(C#N)=C(N)O3)cc1 (centres undefined)	>57	?
COCCNC(=O)c1ccc(CS(=O)(=O)c2c(Cl)cccc2Cl)o1	>57	1%
C=CCn1c(SCCCc2ccccc2)nc2c1c(=O)[nH]c(=O)n2C	>57	?
CCOC(=O)CSc1nc2cccnc2n1-c1ccc(F)cc1	>57	7%
C=CCOc1cccc(C2C(C(=O)c3ccc(C)o3)=C(O)C(=O)N2c2nccs2)c1 (centres undefined)	>57	1%
O=C1OC2(CCCCC2)OC(=O)C1=CNc1ccc2c(c1)OCO2	>57	9%
CCn1c(C)cc(=S)c2ccccc21	>57	2%
O=C(CSc1nnc(SCC(=O)c2ccco2)s1)c1ccco1	>57	-8%
O=C(c1cccc2ccccc12)N1CCN(c2ccccc2F)CC1	>57	5%
CCOC(=O)c1c(O)c2c(n(Cc3ccco3)c1=O)CCCC2	>57	?
COC(=O)c1cnn2c(C(F)(F)F)cc(-c3ccc(F)cc3)nc12	>57	?
Cn1c(=O)[nH]c(=O)c2c1nc1n2CCCN1CCc1ccccc1	>57	?
C/C=C/COC(=O)c1[nH]c2c(c1C)C(=O)CC(c1ccco1)C2 (centres undefined)	>57	?
CCc1ccc(C(=O)COC(=O)CNC(=O)c2ccco2)cc1	.	1%
O=C(O)c1cc(NCc2ccccc2C(F)(F)F)ccc1N1CCOCC1	>57	.
